Compound activity (PubChem)
MLL AF4-AF9 inh – MLL-AF4/AF9 protein interaction inhibition; P42568; AlphaScreen, biotin-AF4 peptide binding to FLAG-AF9; inhibition, % at 10 µM; hit rate 0.47% among 350,000;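 active means every replicate reaching a set inhibition limit, whatever the replicate mean, cut at about 25% in these data; inconclusive means mean inhibition reaches that limit but some replicates miss it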;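 further: 0% = plate neutral control median and 100% = total signal loss; the record names both 10 and 1 µM as test concentration; the first replicate is given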
Target sequence (P42568 whole entry, looked up): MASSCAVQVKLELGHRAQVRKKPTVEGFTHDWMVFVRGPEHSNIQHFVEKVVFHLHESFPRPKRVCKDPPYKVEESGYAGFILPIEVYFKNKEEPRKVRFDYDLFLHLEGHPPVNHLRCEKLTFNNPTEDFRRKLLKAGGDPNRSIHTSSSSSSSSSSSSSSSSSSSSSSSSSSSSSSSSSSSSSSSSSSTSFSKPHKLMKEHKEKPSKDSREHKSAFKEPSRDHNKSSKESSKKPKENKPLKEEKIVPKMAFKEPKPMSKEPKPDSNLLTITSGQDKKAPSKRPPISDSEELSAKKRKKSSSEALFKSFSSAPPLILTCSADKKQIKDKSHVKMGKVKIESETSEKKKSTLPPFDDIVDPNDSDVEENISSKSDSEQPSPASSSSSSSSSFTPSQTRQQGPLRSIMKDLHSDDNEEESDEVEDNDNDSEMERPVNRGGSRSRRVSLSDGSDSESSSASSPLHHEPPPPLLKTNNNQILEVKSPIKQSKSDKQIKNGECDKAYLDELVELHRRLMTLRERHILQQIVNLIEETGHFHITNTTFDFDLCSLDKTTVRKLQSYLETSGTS
FGF22 binding – FGF22 (human) thermal shift binding. Q9HCT0. recombinant FGF22 thermal shift, SYPRO orange fluorescence; percent of sucrose octasulfate shift, DMSO zero. calls only at 9.99 µM. hit rate 1.5% among 340,000;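 active means melting point raised past a set limit in the mean and every replicate; inconclusive means no clear call; three in four hits are not shown here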
Target sequence (Q9HCT0 whole entry, looked up): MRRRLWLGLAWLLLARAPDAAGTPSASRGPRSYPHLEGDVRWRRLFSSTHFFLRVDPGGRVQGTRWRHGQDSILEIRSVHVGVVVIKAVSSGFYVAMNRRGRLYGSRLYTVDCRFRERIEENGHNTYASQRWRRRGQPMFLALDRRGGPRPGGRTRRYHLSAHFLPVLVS
UCH37 inh – inhibitors of human deubiquitinating enzyme UCH37. hit rate 0.33% among 330,000. inhibition, % (test concentration not listed). purified proteasome/UCH37, Ub-AMC cleavage fluorescence. Q9Y5K5. AID 588478;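 active means mean of two replicates above 20%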;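 further: 0% = compound-free wells with enzyme and 100% = wells lacking proteasome; stock transfer was 100 nL into about 20 µL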
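Material: human UCH37 enzyme supplied as purified proteasome complex / Amount: 0.15 nM proteasome as dispensed / Buffer or medium: pH 7.4 Tris-HCl (50 mM) with ovalbumin, ATP-MgCl2, DTT / Times: preincubation 30 min, reaction 25 min, room temperature / Technique: AMC fluorescence from Ub-AMC cleavage, excitation 355 nm, emission 460 nm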
RanGTP-Impb inh – disruptors of Ran-importin-beta complex formation – biochemical, FRET, CFP-Ran, YFP-importin-beta, homogeneous, primary screen; inhibition, % (test concentration not listed); AID 2216; cell-free CFP-Ran/YFP-importin-beta FRET ratio; hit rate 1.1% among 300,000;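 active means most replicates above 15%; inconclusive means exactly half above 15%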;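 further: 0% = DMSO wells and 100% = Ran loaded with GDP instead of GTP; wells of about 40 µL received 100 nL stock; the first replicate is given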
E coli growth – blocks Escherichia coli growth; hit rate 0.21% among 330,000; OD600, 23 h; hits give low values; OD600 absorbance (no concentration beside the values); AID 1053175;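 active means OD600 absorbance below the run mean of sample wells minus 3.6 SD, in any replicate, cut at about 0.56 in these data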;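 further: stock transfer was 300 nL into about 60 µL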
Vif A3G – inhibitors of Vif binding to APOBEC3G peptide, primary screen, biochemical, TR-FRET, GST-Vif 1-94, biotin-A3G peptide, dose response retest (AID 1117319) | TR-FRET GST-Vif / biotin-A3G peptide binding; higher % means a stronger effect; test concentration not given here; strong numbers were not always called active | inhibition, %, or IC50 in µM where a hit was titrated | hit rate 0.57% among 260,000;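 active means above the screen mean plus three standard deviations and confirmed in dose response; inconclusive means results disagree or hit not tested in dose response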;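 further: Vif residues 1-94 fused to GST binding biotinylated APOBEC3G peptide 110-148; 0% = full assay without inhibitor and 100% = GST in place of GST-Vif; retest series ran down from 100 µM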
HNF4A DNA FP – change in binding of human HNF4 alpha to DNA. HNF4a-FITC DNA binding, fluorescence polarization, 1 h. AID 1224865. P41235. activity change, % at 10 µM. hit rate 0.3% among 360,000; in the data active means activity change above about 30%, passing the limit was not always enough;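 further: controls were the assay level and a saturating level of protein; the project sought stronger binding though the title names inhibitors; some compounds called inactive have numbers as strong as hits; positive values seem to mean higher polarization but the record does not say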
Numbers without * were called inactive; i = inactive; u = inconclusive; x = not tested or not shown. Only part of the results is shown; rates above refer to the full screens.

Sequence of screens – UCH37 inh	RanGTP-Impb inh	Vif A3G	FGF22 binding	HNF4A DNA FP	MLL AF4-AF9 inh	E coli growth
COc1cccc(/C=C2\SC(=S)N(CCCC(=O)Nc3ccc(C(=O)O)cc3)C2=O)c1
 : 7.3	4.0	x	i	2.5	-0.5	0.72
O=C(CN1C(=O)/C(=C2/SC(=S)N(CCS(=O)(=O)O)C2=O)c2ccccc21)Nc1cccc(Br)c1
 : 5.5	x	-1%	i	-0.4	1.2	0.67
CCCC(=O)c1cc2ccccc2oc1=O
 : 2.9	-42	16%	x	-0.3	x	0.72
Cc1nc2ccc([N+](=O)[O-])cc2c(=O)n1Cc1cccc(F)c1
 : 7.3	2.2	-6%	i	5.8	-0.4	0.66
Cc1ccc(Cc2c(-c3ccco3)nc3ccc(C)cn23)cc1
 : x	x	x	i	11	-1.5	x
CCOc1ccc(C(=O)NC(=S)Nc2ccc(N3CCCCC3)cc2)cc1[N+](=O)[O-]
 : 0.6	2.4	x	i	-1.2	1.2	0.74
CC(NC(=O)OCc1ccccc1)C(=O)N1CC(O)CC1C(=O)O (stereo not given)
 : x	3.0	4%	x	1.0	-3.8	x
CC(=O)Nc1cccc(-c2cc(N3CCN(CCO)CC3)n3nccc3n2)c1
 : x	x	x	i	2.8	1.9	x
O=C(Nc1ccc(Oc2cccc3ccccc23)cc1)c1ccco1
 : 0.6	-0.8	5%	x	-1.2	x	0.67
CCc1nnc(NC(=O)CSc2nnc(-c3c[nH]c4ccccc34)n2CCOC)s1
 : 2.2	-0.9	u	x	3.2	x	0.74
CCOc1ccc(NC(=O)c2c(NC(=O)CNCCN3CCOCC3)sc3c2CCC3)cc1
 : 4.1	-2.9	23%	i	3.7	5.3	0.72
CC/C(=N\NC(=O)c1ccc(N2CCCC2=O)cc1)c1ccccc1
 : x	-5.6	x	i	-3.5	-0.7	x
C/C(=N/Nc1ccc(C)cc1)C1(C)N(O)C(C)(C)C(c2ccco2)=[N+]1[O-] (stereo not given)
 : x	2.4	19%	i	-3.8	4.5	x
COc1ccc(/C=N/NC(=O)CNC(=O)C2COc3ccccc3O2)cc1OC (stereo not given)
 : x	1.9	20%	i	1.3	-1.6	x
COc1ccc(C(OC(=O)c2ccco2)C(=O)NC(C)(C)C)cc1OC (stereo not given)
 : 1.8	x	x	i	-2.9	5.4	0.66

Some of these compounds in order of heavy-atom count, descending:
Sequence of screens – UCH37 inh	RanGTP-Impb inh	Vif A3G	FGF22 binding	HNF4A DNA FP	MLL AF4-AF9 inh	E coli growth
COc1ccc(/C=N/NC(=O)CNC(=O)C2COc3ccccc3O2)cc1OC (stereo not given)
 : x	1.9	20%	i	1.3	-1.6	x
CC(=O)Nc1cccc(-c2cc(N3CCN(CCO)CC3)n3nccc3n2)c1
 : x	x	x	i	2.8	1.9	x
Cc1ccc(Cc2c(-c3ccco3)nc3ccc(C)cn23)cc1
 : x	x	x	i	11	-1.5	x

More structures:
Sequence of screens – UCH37 inh	RanGTP-Impb inh	Vif A3G	FGF22 binding	HNF4A DNA FP	MLL AF4-AF9 inh	E coli growth
O=C(CCCNS(=O)(=O)c1cccs1)N1CCN(c2cccc(Cl)c2)CC1
 : 4.8	2.4	12%	x	-1.6	x	0.69
Cc1ccc(S(=O)(=O)NCc2ccc3c(c2)cc(C)n3C)cc1
 : 1.0	5.2	-3%	i	-4.5	8.4	0.7
CC(C)N(Cc1ccccc1)C(=O)CN1C(=O)NC2(CCCc3ccccc32)C1=O (stereo not given)
 : 5.2	-0.8	x	i	-1.1	-0.1	0.68
COc1cccc(C(=O)Nc2ccc(NC(=O)C3CCCCC3)nc2)c1
 : 5.8	-4.7	x	i	-1.9	-2.2	0.68
CCn1nnnc1SCC(=O)Nc1nnc(C(C)C)s1
 : 5.1	-2.8	3%	x	1.3	x	0.65
Cc1ccccc1C(=O)N1CCC(C(=O)NC2CCCCCC2)CC1
 : 1.9	1.5	x	i	-0.6	0.4	0.68
CN(C)c1ncc([N+](=O)[O-])cc1C(F)(F)F
 : 4.6	6.4	x	i	-3.3	x	0.64
O=C(c1ccc(Br)cc1)N1CCC(C(=O)N2CCN(c3ccccc3)CC2)CC1
 : -0.2	1.2	1%	i	2.6	0.5	0.69
Fc1ccc(-c2ccnc3nc(-n4cccc4)nn23)cc1
 : -31	-3.4	-7%	x	3.4	x	0.72
COc1cc(CCC(=O)OCn2nnc3ccccc3c2=O)cc(OC)c1OC
 : 0.1	2.7	-7%	x	0.1	x	0.71
NC(=O)c1ccsc1NC(=O)COC(=O)/C=C/c1ccccc1
 : 0.7	1.2	-7%	i	4.7	2.6	0.62
Cc1ccc(C)c(S(=O)(=O)NC2CCS(=O)(=O)C2)c1 (stereo not given)
 : x	2.8	x	x	1.2	-0.8	x
CCOC(=O)/C(=C\c1ccc([N+](=O)[O-])cc1)C(=O)c1cc(C(C)=O)c(Nc2ccccc2)s1
 : -1.5	-2.0	14%	x	3.4	x	0.71
CC(C)(C)C(=O)N1CCN(c2ccnc3cc(Cl)ccc23)CC1
 : 2.6	0.5	-1%	i	-0.4	-5.5	0.64
CC(=O)c1ccc(NC(=O)C2CCN(S(=O)(=O)c3cccc4cccnc34)CC2)cc1
 : 5.3	-2.2	-2%	i	-0.4	2.0	0.71
CCn1c2ccccc2c2cc(/C=C(/C#N)C(N)=S)ccc21
 : x	x	x	i	2.0	-1.5	x
COC(=O)C1N2C(=O)[C@@H](NC(=O)COc3ccccc3)[C@H]2SC1(C)C (stereo not given in full)
 : 1.3	1.2	x	i	-3.5	-6.4	x
C#CC[N+](C)(C)CCCCCCCC
 : 0.1	0.5	x	i	-3.5	-8.4	0.69
CCc1cccc(CC)c1NC(=O)COc1ccccc1C(=O)c1cc(C#N)c(=O)n(C2CCCCC2)c1
 : 1.1	-0.5	-26%	i	2.1	3.4	0.73
COc1cc(Cl)cc(C(c2c(C(=O)O)[nH]c3ccccc23)c2c(C(=O)O)[nH]c3ccccc23)c1O
 : 7.4	-3.6	x	x	-5.0	-4.7	0.73
Cc1ccc(C)c(C(=O)C(C)OC(=O)c2cccn2C)c1 (stereo not given)
 : 0.1	-0.3	3%	x	6.3	x	0.73
Cc1ccc(C([O-])=C(C(=S)NCc2ccccc2)[n+]2cccc(CO)c2)cc1[N+](=O)[O-]
 : 3.9	x	-1%	i	5.7	1.1	0.69
CCOC(=O)C1=CCN(S(=O)(=O)c2ccc(C)cc2)C1c1cccc2ccccc12 (stereo not given)
 : x	x	x	i	-0.1	-2.0	x
CCn1c2ccccc2c2cc(NC(=O)COC(=O)c3ccc(NC(=O)CC#N)cc3)ccc21
 : 1.2	-0.1	1%	i	-8.6	-0.1	0.7
COc1ccc(OC)c(CN2CCN(c3ccccc3OC)CC2)c1
 : 3.2	0.2	18%	x	3.1	x	0.69
O=c1[nH]c2cc3c(cc2cc1CN(Cc1ccc2c(c1)OCO2)Cc1nnnn1CC1CCCO1)OCO3 (stereo not given)
 : -82	-64	10%	x	28	x	0.69
Cc1cccc(C)c1NC(=O)NC1(C(=O)NCC2CCCO2)CCCCC1 (stereo not given)
 : 2.9	u	x	i	-0.5	-5.0	0.63
CCn1c(C)cc(C(=O)COC(=O)CNC(=O)c2ccco2)c1C
 : x	x	5%	i	2.0	3.3	x
O=C(O)CCCn1cc(NC(=O)c2c(F)cccc2F)cn1
 : 2.6	2.0	x	i	4.3	0.0	0.71
N=c1c2c(n(Cc3cccc(Cl)c3)c3c1CCC3)CCCC2
 : 2.7	-0.9	1%	i	-2.6	0.1	0.62
Cc1ccc(/C=N/NC(=O)c2cccs2)o1
 : x	2.9	3%	i	0.8	-7.3	x
CCOc1cc(N2CCOCC2)c(OCC)cc1NC(=O)CC12CC3CC(CC(C3)C1)C2
 : 2.3	8.7	33%	x	0.5	x	0.74
CN1C(=O)C(C)(C)c2cc(S(=O)(=O)NCc3ccc(Cl)cc3)ccc21
 : 5.8	6.4	6%	i	-1.3	-4.3	0.76
O=C(Nc1nc(-c2ccccc2)cs1)c1cccc([N+](=O)[O-])c1C(=O)O
 : 2.5	-1.2	u	i	1.9	1.0	0.67
CCC(=O)c1cc2c(C)cc(=O)oc2c(C)c1O
 : -1.2	2.3	2%	x	-3.1	x	0.66
O=c1[nH]c(CN2CCN(Cc3ccccc3)CC2)nc2scc(-c3ccccc3)c12
 : 3.2	-0.4	31%	i	2.4	0.4	0.6
Cc1ccc(C(=O)N2C(=O)c3cccc(N)c3C2=O)o1
 : -71	-2.7	1%	i	0.1	-67	0.75
CCOC(=O)CN(C(=O)CSc1nnc(CNc2ccc(F)cc2)n1C)c1ccccc1
 : 1.4	3.0	2%	x	-3.0	x	0.74
O=C1OC(N2CCN(C/C=C/c3ccccc3)CC2)c2ccccc21 (stereo not given)
 : 6.8	-1.3	-1%	x	2.6	x	0.74
Cc1ccc(C)c(NC(=O)CSc2nnc(Cc3cccn3C)n2-c2ccc(F)cc2)c1
 : 2.9	-2.4	14%	i	-1.7	1.4	0.71
CON/C=C(\C=Nc1ccc(Cl)cc1)c1ncc(C(F)(F)F)cc1Cl
 : 7.4	0.1	1%	x	-1.1	x	0.74
Cc1c(NC(=O)COC(=O)c2c3c(nc4ccccc24)CCCC3)c(=O)n(-c2ccccc2)n1C
 : 3.2	-2.2	x	i	-1.6	2.7	0.72
CC(C)(C)c1ccc(S(=O)(=O)Nc2ccc(C(O)(C(F)(F)F)C(F)(F)F)cc2)cc1
 : x	x	x	i	-0.9	-2.6	x
O=C(COC(=O)CNS(=O)(=O)c1ccc(Br)cc1Cl)NCCc1ccccc1
 : 5.7	5.1	8%	i	-0.2	-1.4	0.72
CC(C)C[C@H](NC(=O)c1nc[nH]c1C(=O)N1CCNCC1)C(=O)OC(C)(C)C
 : 3.0	2.4	x	i	-1.5	3.5	x
CN(CC(=O)NCCc1ccccc1)S(=O)(=O)c1cccc2nsnc12
 : 4.4	2.3	14%	x	-2.4	x	0.64
Cc1ccc(N=Nc2c(N)nn3c(C)cc(C)nc23)cc1
 : 7.1	-0.5	2%	x	-0.2	x	0.67
COC(=O)c1onc(-c2ccccc2)c1C(=O)OC
 : 1.0	u	15%	x	-2.4	x	0.72
CCOc1ccc(NC(=S)N2CCC(NC(=O)c3ccco3)CC2)cc1
 : 4.8	1.0	x	i	4.2	-1.4	0.66
Cc1nc(SCc2nc3ccccc3[nH]2)c2oc3ccc(Br)cc3c2n1
 : 2.2	x	x	i	5.1	-16	0.7
Cc1cc(C)nc(Sc2ccc(/C=C(\C#N)C(=O)Nc3ccccc3)o2)n1
 : 4.4	-0.9	1%	x	71*	x	0.68
O=C(c1ccco1)N1CCN(S(=O)(=O)/C=C/c2ccccc2)CC1
 : 5.0	0.5	x	i	0.9	-2.7	0.69
Cc1c(O)ccc(C(=O)CN2CCN(c3ccccc3F)CC2)c1O
 : 3.1	1.5	1%	x	2.1	x	0.68
Cc1ccc(CN2CCN(/N=C\c3cccc([N+](=O)[O-])c3)CC2)cc1
 : x	11	-9%	i	0.5	15	x
